S aureus helic: inhibitors of S. aureus replicative helicase, primary screen, biochemical, fluorescence unwinding readout. replicative DNA helicase (DnaC/DnaB), Staphylococcus aureus. purified S. aureus helicase, fluorescence unwinding assay; about half of the hits fall short of the stated cut. inhibition, %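 (tested at about 80 µM)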. actives 0.05% (n = 120,000). AID 485395, 2010;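 active means both duplicates at 50% or more, or one of them with a favoured structure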;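 further: 0% = mean of negative control wells and 100% = mean of positive control wells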
MgrA-DNA mod: S. aureus MgrA activity modulators, primary screen, biochemical, S. aureus Newman, fluorescence polarization | inhibition, %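 (about 10 µg/mL by stock and volumes)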 | actives 0.13% (n = 84,000) | MgrA-DNA binding;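 active means above 50% in either of two replicates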;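 further: 0% = protein plus DNA without compound and 100% = DNA alone without protein; higher means less MgrA bound to DNA so lower polarization; one replicate is shown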
Active calls of the source: *; . = no result given.

SMILES	S aureus helic	MgrA-DNA mod
C=CC1CN2CCC1C(C(O)c1ccnc3ccc(OC)cc13)C2 (centres undefined)	16.0	.
CCCC(=O)c1ccc(N2CCN(CC)CC2)c(F)c1	3.0	.
COc1ccccc1-n1c(CSc2ccccn2)nc2ccccc2c1=O	18.0	4.2
COc1cc2c3cc1Oc1cc(ccc1O)C[C@@H]1c4c(cc(OC)c(O)c4Oc4cccc(c4)C[C@@H]3N(C)CC2)CC[N+]1(C)C	.	8.2
CCOP(=S)(OCC)Oc1cc(-c2ccccc2)on1	12.0	.
CC1=C(C(=O)OC(C)C)C2(C(=O)Nc3ccccc32)C(C(=O)OC(C)C)=C(N)O1 (centres undefined)	.	0.8
CC[C@@]12CCCN3CC[C@]4(c5cccc(OC)c5N(C(C)=O)[C@@H]4CC1)[C@H]32	7.0	-0.8
CCOC(=O)c1c(CN2CCC(C(=O)OCC)(c3ccccc3)CC2)n(-c2ccccc2)c2cc(Br)c(O)cc12	.	-0.1
O=C1CCCCC1CN1CCCCC1 (centres undefined)	3.0	.
CCN1C(=O)C(=Cc2cc(C)n(C3CC3)c2C)C(=O)N(CC)C1=S	-7.0	0.8
CN(C)P1(=S)C2=C(N3CCCCC3)CC(C)(C)CC2=NN1c1ccccc1 (centres undefined)	-2.0	.
C(#CCN1CCCC1)CN1CCCC1	.	-4.8
O=c1cccc2n1CC1CC2CN(S(=O)(=O)c2ccccc2)C1 (centres undefined)	0.0	0.1
CSc1ncccc1C1=N/C(=C\c2ccc(Cl)cc2)C(=O)O1	.	-1.8
Cc1c(CCN)c2cccc3c2n1CCC3	5.0	.
CCOc1nc(NCc2ccco2)nc(N2CC3CC(C2)c2cccc(=O)n2C3)n1 (centres undefined)	-4.0	-2.8
O=c1cccc2n1CC1CC2CN(CCO)C1 (centres undefined)	2.0	-1.6
COc1ccc(C2C(C#N)=C(N)Oc3c2c(=O)oc2ccccc32)c(OC)c1OC (centres undefined)	.	-1.4
c1ccc(CC(NCc2ccco2)c2ccccc2)cc1 (centres undefined)	7.0	.
Cc1cc(C(=O)Nc2ccc3c(c2)OCCO3)nn1C(C)(C)C	.	-1.9
CC[C@H]1CN2CCC3(C(=O)Nc4ccccc43)C2C[C@@H]1/C(=C\OC)C(=O)OC (some centres undefined)	4.0	-1.2
CN1CCN(Cc2cc(Br)cs2)CC1	16.0	-5.2
CCN1CCN(Cc2cc(C(C)(C)C)c(O)c(C(C)(C)C)c2)CC1	4.0	-7.5
COc1cc(C=C2C(=O)NC(=O)NC2=O)ccc1OS(=O)(=O)c1ccccc1[N+](=O)[O-]	.	4.2

Some of the entries above, reformatted:
Each structure is followed by: S aureus helic | MgrA-DNA mod
O=C1CCCCC1CN1CCCCC1 (centres undefined)
    3.0 | .
CCN1C(=O)C(=Cc2cc(C)n(C3CC3)c2C)C(=O)N(CC)C1=S
    -7.0 | 0.8

5 compounds from above, ordered by count of non-hydrogen atoms, lowest first:
SMILES	S aureus helic	MgrA-DNA mod
CN1CCN(Cc2cc(Br)cs2)CC1	16.0	-5.2
c1ccc(CC(NCc2ccco2)c2ccccc2)cc1 (centres undefined)	7.0	.
CSc1ncccc1C1=N/C(=C\c2ccc(Cl)cc2)C(=O)O1	.	-1.8
O=c1cccc2n1CC1CC2CN(S(=O)(=O)c2ccccc2)C1 (centres undefined)	0.0	0.1
COc1cc(C=C2C(=O)NC(=O)NC2=O)ccc1OS(=O)(=O)c1ccccc1[N+](=O)[O-]	.	4.2

The results go on.
SMILES	S aureus helic	MgrA-DNA mod
CC(=O)N1CN2CN(C(C)=O)CC(C(=O)c3ccccc3)(C2)C1	.	-1.6
COC(=O)c1cn(CCCOc2ccccc2OC)c2ccccc12	1.0	-3.6
FC(F)=C(F)CCSC1=NCCN1	.	-1.2
CCCCCC[C@H]1C(=O)O[C@H](C)C(NC(=O)c2cccc(NC=O)c2O)C(=O)O[C@@H](C)[C@@H]1OC(=O)CC(C)C (some centres undefined)	.	-0.6
FC(F)(F)c1ccccc1CNCCc1c[nH]c2ccccc12	10.0	-7.3
O=C1c2ccccc2C(=O)N1Cc1nc2ccccc2c(=O)n1-c1ccncc1	7.0	.
N#CC(C#N)=Cc1c(Cl)nc2sccn12	-1.0	.
Cc1c(Cl)c([N+](=O)[O-])nn1CC(=O)Nc1ccc(Cl)cc1C(=O)c1ccccc1	.	1.0
COC(=O)c1ccc(OP2(=O)COc3ccccc3OC2)cc1	7.0	0.9
NC1=C(C(=O)OCc2ccccc2)C2(C(=O)Nc3ccc(Br)cc32)c2c(c3ccccc3oc2=O)O1 (centres undefined)	.	-0.3
COc1ccc2c(C)cc(N(C)C3CCN(C)CC3)nc2c1	-9.0	.
NC(=O)CS(=O)(=O)C(c1ccccc1)c1ccccc1	-6.0	1.9

Exported in markdown: part of the list above.
| mol | S aureus helic | MgrA-DNA mod |
| --- | --- | --- |
| CC(=O)N1CN2CN(C(C)=O)CC(C(=O)c3ccccc3)(C2)C1 | . | -1.6 |
| COC(=O)c1cn(CCCOc2ccccc2OC)c2ccccc12 | 1.0 | -3.6 |
| FC(F)=C(F)CCSC1=NCCN1 | . | -1.2 |

Additional entries follow.
SMILES	S aureus helic	MgrA-DNA mod
Cc1cc(C(=O)O)c(C)n1C(C)C	-6.0	7.9
C[C@@H]1CC[C@@]2(NC1)O[C@H]1C[C@H]3C4CC=C5C[C@@H](O)CC[C@]5(C)C4CC[C@]3(C)C1[C@@H]2C (some centres undefined)	.	0.8
CCCCn1nc(C)c(C(=O)Nc2nc3ccccc3[nH]2)c1Cl	8.0	.
COc1ccc2[nH]cc(CCN)c2c1	31.0	.
O=C(Cc1ccccc1)N1CCN(c2cccc(C(F)(F)F)c2)CC1	-3.0	.
Cc1ccc(C(=O)CBr)cc1C	-9.0	-3.6
CC(C)(C)c1nc2ccccc2c(=O)n1-c1ccc(F)cc1F	-12.0	-0.2
CCOC(=O)CN1C(=O)CC(C[C@@H](O)C2C[C@@H](C)C[C@H](C)C2=O)CC1=O (some centres undefined)	.	1.9
CN1CCN(C(=O)COc2cc(-c3ccccc3)nc3ccccc23)CC1	.	-3.0
O=C1C2CCN(CC2)C1(CO)CO	.	0.0
CCN(CC)P1(=S)N(C)P(=S)(N(CC)CC)N1C (centres undefined)	8.0	.
O=C1NC(=S)NC(=O)C1=Cc1ccc([N+](=O)[O-])s1	.	27.7
COC(=O)c1sc2c(C)cc(Cl)c(C)c2c1C(=O)O	.	3.5
c1ccc2c(c1)sc1ccccc12	.	1.2
COc1ccc(-n2c(O)c(C=NC3CN4CCC3CC4)c3ccccc3c2=O)cc1OC (centres undefined)	11.0	.
CN1CCc2nc3sc(C(=O)NC(C)(C)C)c(N)c3cc2C1	7.0	-2.6
CCn1c(O)c(C=NCCc2c[nH]c3ccccc23)c(=O)[nH]c1=O	-2.0	1.3
C=CC1CN2CCC1CC2[C@@H](OC(=O)c1ccc(OC)cc1)c1ccnc2ccccc12 (some centres undefined)	5.0	-0.1
C=CCOc1ccc(C=C(C#N)C#N)cc1	-16.0	.
NCCN1CCN(Cc2ccccc2)CC1	16.0	.
CC(=O)OC1CCC2(C)C3CCC4(C)C(OC(C)=O)CCC4C3CC(O)C2(O)C1 (centres undefined)	.	-1.1
CN(C)C(=O)Oc1ccnc(SCc2c(Cl)cccc2Cl)n1	.	-0.3
Clc1cccc(Cl)c1NC1=NCCS1	.	-1.3
CCCCn1c(C)c(C(=O)OCC)c2cc(OC)ccc21	-5.0	-1.1
C=C[C@H]1CN2CC[C@H]1C[C@@H]2[C@H](O)c1ccnc2ccccc12	.	-0.2
CC(C)(C)c1cc2c(c(C(C)(C)C)c1)Oc1cc(C#N)c(C#N)cc1O2	6.0	0.9
O=c1cccc2n1CC1CC2CN(CC(O)c2ccc3[nH]ccc3c2)C1 (centres undefined)	-18.0	.
CC(=O)Nc1cccc(OC(=O)N(C)C)c1	1.0	-6.0
CCN1CCc2nc3ccccc3c(C(=O)O)c2C1	-17.0	-2.0
CCOC(=O)C1(c2ccccc2)CCN(CCOc2ccccc2)CC1	-6.0	-5.6
C[C@]1(C(=O)O)CCC[C@]2(C)c3cc(O)ccc3CC[C@@H]12	11.0	1.4
CCCSc1nc(O)c(CC)c(=O)n1C(C)CC (centres undefined)	20.0	0.4
CCOC(=O)c1nc2ccccc2c(=O)n1-c1ccc(C)cc1C	-7.0	-1.2
CC(C)=CCOc1c2occc2cc2ccc(=O)oc12	.	0.9
COc1cc(C(=O)OC2CC3CCC(C2)N3)ccc1O (centres undefined)	8.0	-1.6
CCOC(=O)C1C2c3ccccc3O[C@]1(C)N=c1s/c(=C/c3ccc(OC)cc3)c(=O)n12 (some centres undefined)	10.0	-1.7
O=C(CC(=O)N1CC2CC(C1)c1cccc(=O)n1C2)c1ccccc1 (centres undefined)	11.0	-0.9
CN(C)C(=O)C(CCN1CCC(O)(c2ccccc2)CC1)(c1ccccc1)c1ccccc1	-6.0	0.2
COc1ccc(Cl)cc1NC1=NCC(C)S1 (centres undefined)	0.0	1.1
COC(=O)[C@@]1(O)CC2OC1(C)n1c3ccccc3c3c4c(c5c6ccccc6n2c5c31)C(=O)NC4 (some centres undefined)	.	1.8
CN(C)C(=S)SCC#N	-11.0	.
N#CC1(N2CCCCC2)CCCCC1	0.0	-0.1
CCOC(=O)C1(c2ccccc2)CCN(CCC(=O)Nc2ccc(C(=O)OC)cc2)CC1	4.0	-2.9
CNCC(O)c1ccc(O)c(OC)c1 (centres undefined)	.	1.7
O=C(c1cc2ccccc2oc1=O)N1CCC2(CC1)OCCO2	17.0	5.2
O=C(CN1CCCC1)c1ccccc1Br	-8.0	.
N#CC(C#N)=Cc1cc2c(cc1Br)OCO2	-2.0	.
CC(C)OCCCNC1CCN(C)CC1	5.0	1.8
COCc1c(C)cc(C)c(C=C(C#N)C#N)c1C	0.0	6.6
O=c1c2ccccc2nc(-c2ccoc2)n1-c1ccccc1	16.0	0.3
CCC1C2CC3[C@@H]4N(C)c5ccccc5[C@]45CC(C2[C@H]5O)N3[C@@H]1O (some centres undefined)	.	-1.2
O=C(O)[C@@H]1C[C@@H]2CCCC[C@@H]2N1	-11.0	.
CCSc1ccc(CCN)s1	-1.0	-3.2
O=C1CCCN1C(=O)c1cc(Cl)cc(Cl)c1	1.0	-0.3
CCNc1nc(Cl)nc(NCC)n1	9.0	-3.7
CC(C(=O)N1CCCc2ccccc21)N1CC=C(c2ccccc2)CC1 (centres undefined)	-7.0	.
O=[N+]([O-])c1ccc(N2CCCNCC2)nc1	.	-2.0
CCC12CN3CCN(CC(C3)/C1=N/NC(=O)c1ccncc1)C2	-1.0	.
Cc1nn(CCC#N)c2c1P(=S)(N1CCCCC1)OC(c1ccccc1)=N2 (centres undefined)	21.0	.
C=CCC1(C2CCCC2)C(=O)NC(=O)NC1=O	12.0	1.8

(next part)
SMILES	S aureus helic	MgrA-DNA mod
CCCNCCc1ccccc1	10.0	-0.1
COC(=O)[C@@]1(C#N)C(c2cc(OC)cc(OC)c2)[C@@H](C#N)N2c3ccccc3C=C[C@@H]21 (some centres undefined)	-6.0	-0.7
Cc1c2cnn(CC(=O)N3CCC4(CC3)OCCO4)c(=O)c2c(C)n1Cc1ccccc1F	6.0	-1.6
C=CCSc1nc2ccccc2c(=O)n1-c1ccccc1	14.0	1.4
Cc1n[nH]c(C)c1CCN	16.0	0.1
CCC(=O)OC1CCC2C3CCC4CC(=O)CCC4(C)C3CCC12C (centres undefined)	-15.0	.
Fc1ccccc1CCNCc1ccco1	7.0	.
COc1cc(CN2CCN(C(=O)Cc3ccccc3)CC2)cc(OC)c1OC	9.0	2.6
CN(C)C(=O)Oc1ccc(-c2ccccc2)cc1	19.0	-0.6
C=C(C)Cc1c(COC)nc(-c2ccc(C)c(Cl)c2)nc1OC(=O)N(C)C	13.0	.
CC1(C)COP(=S)(C(Nc2ccc(Cl)cc2)c2ccc(O)cc2)OC1 (centres undefined)	0.0	3.5
O=P(CN1CCN(c2ccccc2)CC1)(N1CCCCC1)N1CCCCC1	10.0	.

Retrieved by compound from the list above:
SMILES	S aureus helic	MgrA-DNA mod
Cc1ccc(C(=O)CBr)cc1C	-9.0	-3.6
O=[N+]([O-])c1ccc(N2CCCNCC2)nc1	.	-2.0
NC1=C(C(=O)OCc2ccccc2)C2(C(=O)Nc3ccc(Br)cc32)c2c(c3ccccc3oc2=O)O1 (centres undefined)	.	-0.3
O=c1cccc2n1CC1CC2CN(CCO)C1 (centres undefined)	2.0	-1.6
FC(F)(F)c1ccccc1CNCCc1c[nH]c2ccccc12	10.0	-7.3
CC[C@@]12CCCN3CC[C@]4(c5cccc(OC)c5N(C(C)=O)[C@@H]4CC1)[C@H]32	7.0	-0.8
CCC12CN3CCN(CC(C3)/C1=N/NC(=O)c1ccncc1)C2	-1.0	.

Following part:
SMILES	S aureus helic	MgrA-DNA mod
O=C(Nc1ccc(Cl)cc1C(=O)c1ccccc1)c1ccc(Cl)cc1	.	-3.4
CN=C1N=P(NC)(NC)N=C(c2ccccc2)N1	-6.0	.
CC(C)(C)c1ccc(/C=C2\C(=O)C3CCN2CC3)cc1	17.0	0.0
COc1cc(C2C(C#N)=C(N)Oc3c2c(=O)oc2ccccc32)ccc1OC(C)C (centres undefined)	.	0.6
Nc1ccc(CCN2CCCCCC2)cc1	-3.0	-6.5
CC(C)(c1ccccc1)c1ccc(O)cc1	7.0	-2.6
NCCC1COc2ccccc2O1 (centres undefined)	4.0	0.6
Cc1ccc(NC(=O)C2C3c4ccccc4C(c4ccccc43)C2C(=O)O)cc1 (centres undefined)	3.0	.
COc1ccc(CCNCc2cccnc2)cc1	-38.0	.
COc1ccccc1CCNCc1ccccc1C(F)(F)F	16.0	2.2
O=C1C2CCN(CC2)C1CSc1ccc(Cl)cc1 (centres undefined)	.	7.6
CCCCNC(=S)N1CCn2cccc2C1c1cccnc1 (centres undefined)	18.0	.
Cn1c(O)c(C=NCCN2CCN(C(=O)c3ccccc3)CC2)c(=O)n(C)c1=O	15.0	1.5

Assay outcomes (PubChem BioAssay)

The list is partial, so the mix of outcomes need not match the whole.
